eIF4H inh – inhibitors of RNA binding by human eIF4H. eIF4H fluorescence polarization binding assay. inhibition, % at 35 µM. 290,000 compounds, 0.94% hits;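 active = 50% or more with normal probe brightness, or confirmed in later tests; inconclusive = above 50% with abnormal brightness, or retests that disagree; inactive = below 50% or failed in later tests; about a fifth of its hits are not listed in these tables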;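 also: calls also rest on retests at 20 µM and on dose response follow-up; 0% = protein and probe with vehicle and 100% = probe without protein; strong numbers were not always called active; many hits fall short of the cut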
UUG fidelity – modulators of start codon recognition fidelity in yeast. 350,000 compounds, 0.13% hits. S. cerevisiae UUG-firefly luciferase reporter, luminescence/redox ratio. activity score, % at 18.7 µM;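 active = replicate mean at a twofold rise or more, about +100% in these data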;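 also: firefly luciferase made from a UUG start codon reports start codon fidelity; reporter light over untreated wells divided by growth signal over untreated wells; some hits fall short of that in this replicate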
CSC inhib – cancer stem cell inhibition; cancer stem cell-like cells viability, luminescence; inhibition, % at 7.5 µM; 300,000 compounds, 1.1% hits;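 active = mean at 75% or more and at least half the replicates too; inconclusive = mean and replicates disagree; tested in HMLE shEcad cells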;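 also: 0% = median of negative and 100% = median of positive control wells; the first replicate is given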
Rce1 inh – blocks yeast Ras-converting enzyme; 290,000 compounds, 0.27% hits; calls only; yeast membranes, quenched prenylated peptide cleavage fluorescence;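 active = fall in fluorescence gain of 50% or more versus controls, with final raw signal at or below 3038400; inconclusive = same 50% fall but final raw signal above 3038400; inactive = fall in fluorescence gain under 50%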;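 also: plate controls were neutral control wells for no effect and wells lacking membranes for full effect; tested at 10 µM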
Target sequence (Q03530 whole entry, looked up): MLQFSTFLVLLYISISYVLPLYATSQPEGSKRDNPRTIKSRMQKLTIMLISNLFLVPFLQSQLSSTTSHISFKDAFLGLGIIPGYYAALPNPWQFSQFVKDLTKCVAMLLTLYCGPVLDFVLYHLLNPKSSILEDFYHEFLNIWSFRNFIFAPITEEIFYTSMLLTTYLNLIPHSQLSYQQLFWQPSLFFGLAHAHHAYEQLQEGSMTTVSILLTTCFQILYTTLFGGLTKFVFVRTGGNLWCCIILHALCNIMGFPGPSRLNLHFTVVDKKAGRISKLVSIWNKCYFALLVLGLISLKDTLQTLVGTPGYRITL
MT1-MMP act inh – inhibitors of human MT1-MMP activation; P50281; HT1080 RFP-PRO-GFP cells, GFP/RFP ratio fluorescence, overnight; percent of plate control window, DMSO zero; GFP/RFP ratio change, % at 20 µM; 360,000 compounds, 0.061% hits;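 active = GFP/RFP ratio change of at least 30% with cell ATP level not reduced by more than half and red fluorescence within 50% of control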; also: strong numbers were not always called active
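Test system: HT1080 RFP-PRO-GFP cells; Benchmarks: DMSO and RFP-L50D-GFP cell wells; Timing: cells overnight before dosing, compound overnight, 37 °C, 5% CO2; Compound: one 20 µM compound dose with 1% DMSO; Read-out: GFP/RFP fluorescence ratio.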
PABP polyA inh – blocks human PABP binding to poly(A) RNA. fluorescence polarization. inhibition, % at 35 µM. 290,000 compounds, 1% hits. AID 2014;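 active = 50% or more with normal probe brightness, or confirmed in later tests; inconclusive = above 50% with abnormal brightness, or retests that disagree; inactive = below 50% or failed in later tests; about a fifth of its hits are not listed in these tables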;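 also: calls also rest on retests at 20 µM and on dose response follow-up; controls were probe without protein and protein plus probe with vehicle; some compounds called inactive have numbers as strong as hits; many hits fall short of the cut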
Target sequence (P11940 whole entry, looked up): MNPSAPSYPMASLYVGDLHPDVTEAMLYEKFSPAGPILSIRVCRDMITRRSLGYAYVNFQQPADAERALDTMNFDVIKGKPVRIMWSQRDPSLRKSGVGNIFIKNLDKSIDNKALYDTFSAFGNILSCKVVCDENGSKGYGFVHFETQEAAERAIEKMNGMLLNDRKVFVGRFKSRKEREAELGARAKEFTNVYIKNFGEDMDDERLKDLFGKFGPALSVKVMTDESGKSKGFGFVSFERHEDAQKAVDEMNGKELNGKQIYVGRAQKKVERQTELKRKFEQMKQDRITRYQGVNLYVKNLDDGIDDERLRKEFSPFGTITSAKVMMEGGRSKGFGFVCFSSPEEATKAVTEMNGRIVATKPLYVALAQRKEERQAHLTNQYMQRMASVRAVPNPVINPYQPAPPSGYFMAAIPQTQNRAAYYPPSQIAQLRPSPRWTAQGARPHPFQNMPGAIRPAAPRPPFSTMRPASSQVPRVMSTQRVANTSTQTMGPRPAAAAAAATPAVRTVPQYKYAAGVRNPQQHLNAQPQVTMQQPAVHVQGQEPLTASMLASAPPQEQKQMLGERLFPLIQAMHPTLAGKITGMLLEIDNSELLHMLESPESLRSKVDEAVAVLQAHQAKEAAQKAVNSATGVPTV
HIV Env fusion – HIV envelope-mediated fusion inhibition; inhibition, % at 12.3 µM; HeLa-JRFL Env/CEM21 cell fusion, luciferase; AID 651610; 360,000 compounds, 1.1% hits;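 active = mean replicate inhibition score of at least 50 and every replicate individually at or above 50; inconclusive = only one of the two criteria met; inactive = mean below 50 and not all replicates reaching 50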;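 also: 0% = plate neutral controls and 100% = maraviroc near 300 nM; one replicate is shown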
eIF4H inh retest – recorded beside eIF4H inh, whose call it bears; inhibition, %; compound at 20 µM; confirmation average;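 mean of two retest wells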
PABP polyA inh retest – recorded beside PABP polyA inh, whose call it bears; inhibition, %; compound at 20 µM; confirmation repeats;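 mean of two retest wells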
MT1-MMP act inh RFP – recorded beside MT1-MMP act inh, whose call it bears; RFP signal change, %; measured here: RFP expression control read;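 0 = vehicle wells; hits needed this value within 50% of zero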
Numbers without * were called inactive; i = inactive; ? = inconclusive; . = no result given.

SMILES	eIF4H inh	UUG fidelity	CSC inhib	Rce1 inh	MT1-MMP act inh	MT1-MMP act inh RFP	PABP polyA inh	HIV Env fusion	others
Cc1ccc(S(=O)(=O)N(C)c2ccc(OCC(=O)NC3=NCCS3)cc2)cc1	-2	.	5	i	0	-1	-13	4
COc1ccc(OC)c(CN2CCC(CNC(=O)Nc3cccc(Cl)c3)CC2)c1	1	.	6	i	0	-6	13	24
Cc1ccccc1NC(=S)/C(=C(\[O-])c1cc(C)n(Cc2ccccc2Cl)c1C)[n+]1ccccc1	43	.	5	i	-3	2	-2	8
CC12CC3CC(C)(C1)CC(C(=O)NC(=S)N1CCCCC1)(C3)C2	-2	-22	-7	i	0	-3	3	.
Cc1cccc(NC(=S)NNC(=O)Cc2ccccc2)c1	0	-24	8	i	-1	-3	0	0
O=C(O)c1ccc(CSc2nc(-c3ccc(Cl)cc3)cc(C(F)(F)F)n2)cc1	11	.	?	i	.	.	7	.
O=C(CSc1ccc2c(c1)OCCO2)Nc1ccccc1	.	-3	.	.	1	-9	.	8
O=C(Cn1nc2ccccc2n1)N/N=C/c1ccc(F)cc1	10	.	-8	i	6	4	8	3
O=C(O)C1CC=CCC1C(=O)Nc1cccc(F)c1 (centres undefined)	-13	-14	5	i	2	0	3	.
CC12CN3CCN(CC(C3)/C1=N\NC(=O)Nc1cccc(Cl)c1)C2	-12	-14	-6	i	0	5	-1	7
COCCNC(=S)N/N=C(\C)c1ccc(O)cc1	-3	-19	.	i	4	0	14	.
CCOc1[nH]n(-c2ccc(Cl)cc2)c(=O)c1C=NCc1cccnc1	1	-1	10	i	2	0	-3	9
CCCN(C(=O)CSc1nnc(-c2ccncc2)n1CCC)c1c(N)n(Cc2ccccc2)c(=O)[nH]c1=O	.	-7	.	.	-1	-2	.	0
CCC(=O)N1CCc2cc(S(=O)(=O)NCCC(=O)N3CCN(c4cccc(C)c4)C(C)C3)ccc21 (centres undefined)	5	31	-2	i	2	-6	6	29
NC(=O)c1nn(-c2ccccc2)nc1NC(=O)CN1CCOCC1	-4	-5	-9	i	1	3	2	-5
CCN1CCN(c2nc3ccccc3nc2C(C#N)S(=O)(=O)c2ccc(C)c(C)c2)CC1 (centres undefined)	101	-24	-12	i	2	1	121	-26	eIF4H inh retest=38;PABP polyA inh retest=46
CCCCn1c(N)c(N(CC(C)C)C(=O)C2CCN(S(=O)(=O)c3ccc(F)cc3)CC2)c(=O)[nH]c1=O	-7	-4	28	i	-4	-2	16	.
COc1ccc(N(CC(=O)NCc2ccncc2)S(=O)(=O)c2ccc(C)c([N+](=O)[O-])c2)cc1	6	.	1	i	-2	-1	-5	12
CCCOC(=O)c1ccc(NC(=O)c2cnccn2)cc1	-6	.	.	i	8	2	1	.
O=C(NCc1ccc(Cl)cc1)c1cc(=O)[nH]c2ccc(S(=O)(=O)N3CCOCC3)cc12	0	-4	-3	i	5	6	-3	-20
COCOCCn1cc(CN2CCS(=O)(=O)N(Cc3ccc(-c4ccc(Cl)nc4)cc3)C(C(C)C)C2=O)nn1 (centres undefined)	.	1	.	.	0	-6	.	18
CCn1cc(/C=C(\NC(=O)c2ccccc2Cl)C(=O)NCCN2CCOCC2)c2ccccc21	-10	.	6	i	0	0	-3	-6
CN(Cc1ccc(Cl)c(Cl)c1)C(=O)C1=CC=CN2CCS(=O)(=O)N=C12	.	-4	6	.	-2	0	.	.
CCOc1cc(C(=S)N2CCC(O)CC2)ccc1OS(=O)(=O)c1ccc(Br)cc1	-6	.	.	.	-3	-8	1	.
COc1ccc(NC(=O)CN(Cc2ccccc2)S(C)(=O)=O)c(OC)c1	-1	-6	-8	i	0	1	-9	-8
N#Cc1ccc(OCC(=O)NCCCn2ccnc2)cc1	.	-12	-20	.	5	4	.	-8
Cc1nn(Cc2ccc(Cl)cc2)c(C)c1N	-5	-3	9	i	-4	4	0	-167
Cc1cccc(OCCNC(=O)c2cncc(Br)c2)c1	1	.	-5	i	-5	-5	6	8
CN(C(=O)c1cc(-c2ccc3c(c2)OCO3)on1)c1ccccc1	-4	-20	2	i	5	4	4	-45
Cc1ccc(C(=O)NCc2ccccn2)cc1S(=O)(=O)N1CCCCC1	6	-23	-7	i	-1	4	-2	90*
Cc1csc2ncc(C(=O)NCCC(c3ccccc3)c3ccccc3)c(=O)n12	-2	-27	4	.	-12	-5	-3	18
COc1ccc(C(=O)NC2CC(C)(C)Cc3c2cnn3-c2ccccc2)c(OC)c1 (centres undefined)	13	-9	13	i	0	-8	2	18
O=C1CC(c2ccccc2)CC(O)=C1C=NC1CCCC1 (centres undefined)	-9	-16	-3	i	-2	-1	-3	.
COc1ccc(-c2cccc([C@H]3[C@@H]4C=CCC[C@@]4(C)C(=O)N3Cc3ccccc3)c2)cc1	-5	-18	82*	i	-16	-20	1	19
CCCn1c(N)c(C(=O)CN(C)CC(=O)Nc2cccc(F)c2)c(=O)[nH]c1=O	.	-16	-9	.	-4	0	.	.
Cc1ccc(-c2nsc3c(N4CCC(C(N)=O)CC4)ncnc23)cc1	-3	-9	0	i	2	3	-2	-27
O=C(O)c1cccc2c1Cc1cc(Cl)ccc1-2	.	-18	.	.	-1	2	.	-12
Cc1nc(C)c(N)c(=O)[nH]1	-4	-10	-3	i	-5	-1	-2	7
CCOc1ccc(S(=O)(=O)N2CCN(C(=S)NC3CC3)CC2)cc1	-8	-14	-6	i	4	-2	-3	-15
CC(C)NC(=O)c1onc(CSc2ccccn2)c1C(=O)NC(C)C	-2	-21	1	i	3	3	-8	-4
Cc1c(-c2ccccc2)nc(N)c(C#N)c1-c1cccnc1	-15	.	-5	i	1	3	7	-10
COc1ccc(NC(=O)CC2C(=O)NCCN2C(=O)c2ccc(N(C)C)cc2)cc1 (centres undefined)	-6	4	-12	i	0	4	-9	0
O=S1(=O)C[C@@H](N2CCN(CC3CC3)CC2)[C@H](COCc2ccccc2)N1	.	1	.	.	6	6	.	-84
COCCCN1CC(=O)N2C(c3cccc(C)c3)c3[nH]c4ccccc4c3C[C@H]2C1=O (some centres undefined)	0	-31	-1	i	-1	3	9	1
O=C(CSc1nnc(COc2ccccc2F)n1-c1ccccc1)NC1CCS(=O)(=O)C1 (centres undefined)	0	.	-7	i	5	4	-2	0
CCN(c1ccccc1)c1nc2ccsc2c(=O)s1	-11	-27	66	i	-7	-5	-2	-20
Cc1cccc(-c2noc(CCC(=O)NC3CCCC3)n2)c1	2	.	.	i	.	.	8	1
O=C(CC1C(=O)NCCN1Cc1ccc(-c2ccccc2)cc1)NCCCn1ccnc1 (centres undefined)	4	.	-20	i	4	2	-2	4
COc1ccccc1C/C(N)=N/OC(=O)c1ccc(C)c([N+](=O)[O-])c1	-9	.	-8	i	5	-1	0	.
Cc1cc(NC(=O)c2cc(-c3ccncc3)nc3ccccc23)ccc1Br	.	-12	86*	.	-7	-9	.	-14
O=C(CSc1nc2ccsc2c(=O)n1-c1ccccc1)N1CCCC1	-13	-6	-15	i	6	-1	6	3
COc1ccc(-c2cccc(N3CCN(c4ccccn4)CC3)n2)cc1OC	.	8	.	.	12	7	.	13
O=C(Cn1c(=O)oc2cc(S(=O)(=O)N3CCCCC3)ccc21)N1CCc2ccccc2C1	-12	-16	-2	i	-2	2	6	4
CCc1cccc(CC)c1NC(=O)C1CN(S(=O)(=O)c2ccccc2)CCN1S(=O)(=O)c1ccccc1 (centres undefined)	-8	-2	-6	i	0	-6	5	-21
CCOC(=O)c1c(C)nn(Cc2cccc(Cl)c2)c1N	-4	.	1	i	-4	-3	-5	27
C#CCC(NC(=O)c1ccc(C#N)cc1)C(=O)NCCC (centres undefined)	.	-6	-5	.	-1	1	.	-13
CC(C)N(C(=O)CSc1nc2ccccc2c(=O)[nH]1)C(C)C	-7	.	-1	i	1	3	-13	-24
N#Cc1ccc(C(=O)NC(=S)N2CCOCC2)cc1	.	-11	-9	.	-1	2	.	7
O=C(OCc1ccccc1)/C(=C/c1cccc(Br)c1)NC(=O)c1ccco1	-11	3	5	i	0	-6	-4	-9
CCOC1=C2CN(S(=O)(=O)c3ccc(C)cc3)[C@@H](c3cccc4ccccc34)C[C@H]2[C@H]2C(=O)N(c3ccccc3)C(=O)[C@H]2C1	.	-21	.	.	3	4	.	-46

Grouped by structure: those above containing a nitro group on carbon.
SMILES	eIF4H inh	UUG fidelity	CSC inhib	Rce1 inh	MT1-MMP act inh	MT1-MMP act inh RFP	PABP polyA inh	HIV Env fusion	others
COc1ccc(N(CC(=O)NCc2ccncc2)S(=O)(=O)c2ccc(C)c([N+](=O)[O-])c2)cc1	6	.	1	i	-2	-1	-5	12
COc1ccccc1C/C(N)=N/OC(=O)c1ccc(C)c([N+](=O)[O-])c1	-9	.	-8	i	5	-1	0	.

Later entries.
SMILES	eIF4H inh	UUG fidelity	CSC inhib	Rce1 inh	MT1-MMP act inh	MT1-MMP act inh RFP	PABP polyA inh	HIV Env fusion	others
O=C(Cn1cnc2scc(-c3ccc(Cl)cc3)c2c1=O)N1CCOCC1	4	-9	.	i	-2	0	2	14
COc1ccc(CCNC(=O)Nc2cccc([N+](=O)[O-])c2)cc1OC	1	.	-7	i	1	1	-4	-1
O=C(NC(=S)NCCOCc1ccc(Cl)cc1)c1cccnc1	-12	.	-7	i	-1	-2	-5	-2
FC(F)(F)c1nnc(-c2ccccc2)nc1N1CCCC1	-14	-20	-6	i	3	13	52	11	eIF4H inh retest=-5;PABP polyA inh retest=4
CC(C)(C)OC(=O)N1CCC(C(=O)N2CCC[C@H]2C(=O)O)CC1	-9	-13	1	i	8	1	-2	-14
CC(C)C(NC(=O)c1ccc(C(C)(C)C)cc1)C(=O)Nc1cccc(S(N)(=O)=O)c1 (centres undefined)	-3	2	1	i	-2	-2	-2	22
CN(C)CCCOC(=O)COc1ccc(C(C)(C)C)cc1	11	.	-1	i	1	3	4	5
CN(C)CCN(Cc1cc2cc3c(cc2[nH]c1=O)OCO3)C(=S)NCc1ccco1	49	.	13	i	6	3	49	-10
CC(O)/C=C/C1OC(=O)CC1Nc1ccc(C=O)cc1 (centres undefined)	2	-4	1	i	2	5	1	.
O=C(Nc1ccc(Oc2nnc(-c3ccccc3)c3ccccc23)cc1)c1ccccc1	-8	.	17	i	4	-1	-8	.
O=C(Nc1ccc(N2CCOCC2)cc1)c1cc2c(s1)CCCCC2	-12	.	52	i	8	-4	24	-6
COc1cc(C(=O)OCCCc2cc3ccccc3c(=O)o2)cc(OC)c1OC	.	-5	-3	.	4	0	.	11
CC(NC(=O)/C(C#N)=C/c1cccs1)c1ccccc1 (centres undefined)	23	.	9	i	4	0	-3	9
C/C(=N\NC(=O)c1nnn(-c2nonc2N)c1-c1cccs1)c1cccc(O)c1	11	-17	-15	i	-4	-3	0	19
O=C(N/N=C/C(Cl)=C/c1ccc([N+](=O)[O-])cc1)C(=O)Nc1ccc(C(=O)O)cc1	19	.	11	i	4	0	7	-33
Cc1ccc(Cl)cc1NC(=O)CCn1cccc1	-11	-3	-1	i	1	6	-4	.
O=[N+]([O-])/C(C(=C(Cl)Cl)N1CCN(Cc2ccccc2)CC1)=C1\NCCN1Cc1ccc(Cl)nc1	4	.	-5	i	1	0	3	-16
CC(C)CN(C(=O)C1CSC2(C)CCC(=O)N12)c1c(N)n(Cc2ccccc2)c(=O)[nH]c1=O (centres undefined)	-1	-8	-11	i	-6	0	-10	-31
COc1ccc(CN(C)C(=S)Nc2ccc(OC(F)F)cc2)cc1	-4	-10	7	i	-1	4	76	-4	eIF4H inh retest=-11;PABP polyA inh retest=4
CC1(C)CC(NC(=O)COc2ccc(Cl)cc2Cl)CC(C)(C)N1	-1	-15	-13	.	1	2	-5	-19

Only part of the results is shown, so the mix of outcomes need not match the whole.
